# HSV augment = HSV replication enhancement; AID 1956; HSV replication augmentation in cells, fold increase; actives 0.005% (n = 220,000); maximum fold increase;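 active = peak rise of 1.5-fold or more in the series; inconclusive = self-fluorescent or not available for retest; tested in PC3 cells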;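 also: first round at 10 µM; read as green reporter fluorescence; hits show the peak of a series up to 25 µM; 1 = signal of infected wells without compound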
# Insulin prom inh = TRM-6 insulin promoter activity inhibition; actives 0.9% (n = 130,000); TRM-6 cells (human fetal islet line), insulin promoter-eGFP reporter, imaging; reporter expression induced with tamoxifen; inhibition, % at 2 µM;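 active = inhibition above the mean plus 3 SD, with well images judged a real hit on visual review, cut at about 60% in these data, passing the limit was not always enough; inconclusive = inhibition over the cutoff but images rejected on review; inactive = inhibition not above the cutoff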
# GALR2 agonist = GALR2 (human) receptor agonism. O43603. GALR2-expressing cells, agonist activation read-out. activation, %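 (tested at 5 µM)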. actives 0.48% (n = 140,000);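 active = above mean plus 3 SD of all compounds, about 5% in these data, not always enough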;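 also: 0% = vehicle buffer wells and 100% = reference agonist at full effect; tested in CHO reporter cells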
# Target sequence (O43603 whole entry, looked up): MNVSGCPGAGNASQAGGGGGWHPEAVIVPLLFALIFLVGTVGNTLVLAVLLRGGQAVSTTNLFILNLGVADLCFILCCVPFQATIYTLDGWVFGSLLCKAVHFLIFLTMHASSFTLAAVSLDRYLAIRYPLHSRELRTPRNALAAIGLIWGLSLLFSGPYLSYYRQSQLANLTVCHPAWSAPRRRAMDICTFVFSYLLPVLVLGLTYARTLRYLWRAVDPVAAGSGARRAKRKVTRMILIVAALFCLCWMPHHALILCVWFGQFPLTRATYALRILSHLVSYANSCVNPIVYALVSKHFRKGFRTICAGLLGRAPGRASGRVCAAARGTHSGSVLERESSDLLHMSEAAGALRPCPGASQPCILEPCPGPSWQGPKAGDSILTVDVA
# RGS16-Gao = RGS16-Galphao interaction regulator (human). O15492+P09471. AID 1441. bead-based flow cytometry RGS16-Galphao binding, fluorescence; actives lie on both sides. actives 0.38% (n = 220,000). binding response (% of control), % at 10 µM;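 active = below 25% or above 175%, edge rows of some plates excepted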;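 also: Galphao activated by GDP with aluminum fluoride before binding; 100% = wells without compound and 0% = beads without RGS; some results beyond the cut were filed as inactive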
# Target sequence (O15492 whole entry, looked up): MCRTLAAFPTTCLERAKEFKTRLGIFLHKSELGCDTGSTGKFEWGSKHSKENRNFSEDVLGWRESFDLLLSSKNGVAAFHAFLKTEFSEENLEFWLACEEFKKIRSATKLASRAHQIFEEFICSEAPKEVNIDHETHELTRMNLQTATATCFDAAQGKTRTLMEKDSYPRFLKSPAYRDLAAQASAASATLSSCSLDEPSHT
# Target sequence (P09471 whole entry, looked up): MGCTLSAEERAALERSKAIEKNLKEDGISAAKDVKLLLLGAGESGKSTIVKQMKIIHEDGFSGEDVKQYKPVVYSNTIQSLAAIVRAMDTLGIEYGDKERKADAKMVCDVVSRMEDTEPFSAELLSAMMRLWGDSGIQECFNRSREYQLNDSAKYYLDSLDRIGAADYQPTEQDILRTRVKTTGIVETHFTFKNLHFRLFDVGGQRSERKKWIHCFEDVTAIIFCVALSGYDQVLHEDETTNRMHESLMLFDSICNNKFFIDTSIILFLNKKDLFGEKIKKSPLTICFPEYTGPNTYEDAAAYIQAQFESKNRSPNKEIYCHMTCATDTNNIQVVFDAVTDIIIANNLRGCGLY
# PKD1 kinase inh = blocks activity of human protein kinase D1. Q15139. PKD1 kinase fluorescence polarization assay. inhibition, %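 (about 10 µM by stock and volumes)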. actives 0.056% (n = 200,000). AID 797;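 active = inhibition of 50% or more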;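 also: controls were vehicle for no effect and a reference inhibitor for full effect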
# Insulin prom inh cell count = further read-out of Insulin prom inh, marked with its call; normalized cell count, %; measured here: cell count, toxicity; reference of the scale not given here;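 cells exposed to compound for 48 h; stained nuclei by imaging scaled within each plate; lower means fewer cells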
# HSV augment primary fold = also measured in HSV augment; calls as there; fold increase; compound at 10 µM; measured here: primary screen fold increase 10 uM; tested in PC3 cells;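 GFP signal in the first replicate; 1 = infected wells without compound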
# * hit, by the source's call; i = inactive; ? = inconclusive; . = no result given; & = joins results of further samples.
molecule,Insulin prom inh cell count,HSV augment primary fold,HSV augment,Insulin prom inh,PKD1 kinase inh,RGS16-Gao,GALR2 agonist
Cc1cc(CN2CCCC(CO)(Cc3cccc(Cl)c3)C2)n[nH]1 (centres undefined),.,0.89,i,.,-4,109,.
S=C(NC1CCCC1)N1CCN(C/C=C/c2ccccc2)CC1,.,0.81,i,.,-1,102,.
C=CCNC(=O)COC(=O)c1nc2nccc(C)n2n1,.,1,i,.,5,101,.
O=C(O)c1ccc(COc2ccc3c(c2)CCC3)cc1,.,1.2,i,.,.,96,.
Cc1cc(C(=O)NNC(=S)NCC(C)C)cs1,133,0.99,i,-2,6,103,-1.9
Cc1cccc(C(=O)OC(C)CN2CCOCC2)c1 (centres undefined),182,0.98,i,-57,-5,108,.
CCOC(=O)c1c(-c2cccc([N+](=O)[O-])c2)csc1NC(=O)CCCOc1ccccc1,.,1.1,i,.,-6,101,-0.5
O=S(=O)(c1ccc2c(c1)OCCO2)N1CCN(Cc2ccccc2)CC1,43,0.97,i,-19,-6,113,-0.4
Cc1ccc(-c2c[n+](Cc3ccc(Cl)c(Cl)c3)c3n2CCC3)cc1,.,.,.,.,-14,110,-1.4
CCCCC(=O)Nc1ccc2oc(-c3cccnc3)nc2c1,.,0.87,i,.,4,102,-2.8
NC(=O)c1cc(C(=O)c2ccc(Cl)cc2)c[nH]1,.,1.2,i,.,-8,99,.
Cc1ccc(NC(=O)Cn2nc(C)c3ccccc3c2=O)cc1,77,0.94,i,43,-4,108,1.8
CC(CC(=O)Nc1ccc(S(=O)(=O)N2CCOCC2)cc1)c1ccccc1 (centres undefined),.,0.87,i,.,.,104,.
CC(=O)Nc1ccc2c(c1)n(C)c(=O)n2C,95,1,i,-19,-6,103,0.0
CCOC(=O)c1sc2nc(SC)nc(-c3ccc(Cl)cc3)c2c1N,142,0.87,i,-3,0,104,-1.7
Cc1ccc(-c2csc(=S)n2CC(=O)OCC(=O)NC(C)C(C)C)cc1 (centres undefined),72,1,i,14,3,102,-2.9
O=C(CN(c1cccc(C(F)(F)F)c1)S(=O)(=O)c1ccccc1)N1CCOCC1,.,0.99,i,.,-15,103,-1.8
c1ccc(CCNc2ccc3nncn3n2)cc1,.,0.8,i,.,3,100,-2.2
O=C(NC(=O)c1ccccc1)NC(=O)c1ccccc1,49,1,i,23,-3,100,-0.8
O=C(CN1CCCCCC1)Nc1ccc(Br)cc1Br,115,0.91,i,11,2,96,-1.3
O=C(Cn1nnc(-c2ccccc2Cl)n1)N1CCN(S(=O)(=O)c2ccc(Cl)cc2)CC1,36,0.96,i,-71,-23,102,-2.2
CCn1c(CSc2nnc(-c3cccnc3)n2-c2ccccc2C)nc2cc(C(=O)O)ccc21,74,.,.,-8,3,96,-1.0
CN1CCN(CC(O)COCc2ccc3c(c2)OCO3)CC1 (centres undefined),87,0.93,i,3,3,98,-4.4
CCCCNC(=O)Cc1cc(=O)[nH]c(=O)[nH]1,.,1.1,i,.,-1,100,.
COc1ccc(C(=O)OCC(=O)Nc2ccc(OC(F)F)cc2)c(OC)c1,91,1,i,3,-1,102,-1.9
Cc1cc(/C=N/Nc2ncnc(N)c2[N+](=O)[O-])c(C)n1-c1ccccc1,.,0.78,i,.,.,100,.
COc1ccc(C2c3ccc(O)cc3Oc3ncn4nc(-c5ccccn5)nc4c32)cc1 (centres undefined),.,0.81,i,.,.,94,.
O=C1CCN(c2ccc([N+](=O)[O-])cc2F)CC1,.,0.97,i,.,-1,94,.
CCC(C)NC(=O)COc1ccc(S(=O)(=O)N2CCOCC2)cc1 (centres undefined),95,0.9,i,22,-6,87,-2.1
O=C(/C=C/c1ccccc1)N/C(=C/c1ccccc1)C(=O)Nc1cccc(C(=O)O)c1,47,1,i,-7,-8,98,.
Cc1cccc(N2CCN(C(c3cccs3)c3nnnn3C(C)(C)C)CC2)c1C (centres undefined),.,1.1,i,.,2,96,-4.5
O=C(CCc1ccc(O)cc1)c1c(O)cc(O)cc1O,.,0.84,i,.,.,95,.
CC(C)C(=O)Nc1ccc([N+](=O)[O-])c(C(F)(F)F)c1,123*,0.88&1,i,87*,0,104,.
COc1ccc(-c2cc(C(=O)NCc3cccnc3)no2)cc1OC,102,0.72,i,23,-7,111,-0.6
CC(=O)C1=C(c2ccccc2)OC(N)=C(C#N)C1c1ccc(O)cc1 (centres undefined),102,1.2,i,9,-3,122,-1.2
CCC1CCC(C(=O)NC(C(=O)NCCCN2CCCCC2C)C(C)C)CC1 (centres undefined),67,1,i,13,7,97,.
CC(=O)Nc1ccc(Cc2nc3c([nH]2)c(=O)n(C)c(=O)n3C)cc1,.,0.96,i,.,.,1.1*,.
O=C(NCc1ccc2c(c1)OCO2)c1ccc(Br)s1,.,0.85,i,.,.,98,.
CCCCNC(=O)c1ccccc1NC(=O)c1ccccc1N(C)S(C)(=O)=O,75,1.1,i,4,-3,98,1.9
CCn1c(SCCOc2ccc(Cl)cc2)nnc1-c1cccs1,.,0.92,i,.,4,101,-2.0

# Gathered by group: the entries above with two or more sulfur atoms
molecule,Insulin prom inh cell count,HSV augment primary fold,HSV augment,Insulin prom inh,PKD1 kinase inh,RGS16-Gao,GALR2 agonist
Cc1cc(C(=O)NNC(=S)NCC(C)C)cs1,133,0.99,i,-2,6,103,-1.9
CCOC(=O)c1sc2nc(SC)nc(-c3ccc(Cl)cc3)c2c1N,142,0.87,i,-3,0,104,-1.7
Cc1ccc(-c2csc(=S)n2CC(=O)OCC(=O)NC(C)C(C)C)cc1 (centres undefined),72,1,i,14,3,102,-2.9
CCn1c(SCCOc2ccc(Cl)cc2)nnc1-c1cccs1,.,0.92,i,.,4,101,-2.0

# (list continues)
molecule,Insulin prom inh cell count,HSV augment primary fold,HSV augment,Insulin prom inh,PKD1 kinase inh,RGS16-Gao,GALR2 agonist
Cc1cc(C)c(OCC(=O)NCC2CCCO2)c(C)c1 (centres undefined),107,1,i,12,-7,105,.
Cc1ccc(C(C(=O)NCc2ccco2)N(CCc2ccccc2)C(=O)Cn2nnc3ccccc32)o1 (centres undefined),84,0.98,i,-8,1,108,-0.8
Cc1nn(-c2ccccc2)c(C)c1/C=N/NC(=O)CSc1nnc(-c2ccccc2)n1-c1ccc(Cl)cc1,130,0.87,i,26,-8,104,0.7
COc1ccc(C2C(C(=O)N3CCN(c4ccccn4)CC3)CCC(=O)N2c2ccc(OC)cc2)cc1 (centres undefined),.,0.89,i,.,9,103,.
O=C(c1ccc(Br)cc1)N(C1=NCCCCS1)c1ccccc1,123,1,i,-30,-18,106,-3.1
CC(C)C(=O)OCc1cn(-c2ccc(Cl)c(Cl)c2)nn1,59,0.92,i,33,-6,106,.
CC(C)(C)NC(=O)C1Cc2ccccc2CN1C(=O)Nc1ccccc1Cl (centres undefined),161,0.87,i,-43,-4,94,-4.5
CCOc1ccc2cc(C3CC(c4ccco4)=NN3S(=O)(=O)c3ccccc3)c(Cl)nc2c1 (centres undefined),145,0.83,i,-19,2,97,0.2
COc1cc(C(CC(=O)N2CCCC2)c2c(OC)cc(OC)c3ccc(=O)oc23)cc(OC)c1OC (centres undefined),.,1.1,i,.,.,97,.
Cn1nnc(NC(=O)c2ccc(C(C)(C)C)cc2)n1,123,0.94,i,-43,-2,101,-0.5
CN(C)C(=O)c1cc(C(=O)c2ccccc2C(F)(F)F)c[nH]1,71,1,i,-33,-2,119,.
CCCCOc1ccc(CSc2n[nH]c(C)n2)cc1,132,1.2,i,15,2,98,-4.2
O=C(Nc1ccc(Oc2ccccc2)cc1)C1CCN(c2c3c(nc4ncnn24)CCC3)CC1,189,0.72,i,-17,3,103,-1.6
NS(=O)(=O)c1ccc(NC(=O)CN2CCCC2)cc1,104,0.94,i,31,8,97,.
Cc1ccc2cc(C=O)c(N(C)C)nc2c1,63,1.1,i,9,-4,86,-1.5
N#Cc1nc(Cc2ccccc2)oc1NCc1ccccc1,46,0.86,i,-10,-3,111,-2.2
CCOC(=O)c1cnc(SCc2nc(N)nc(Nc3ccc(F)cc3)n2)nc1N,125,0.59,i,25,2,101,0.1
O=C(CCN1C(=O)c2ccccc2C1=O)NCCC1=CCCCC1,.,0.94,i,.,-2,96,-4.6
O=C(Nc1ccc(OC(F)(F)F)cc1)Oc1ccccc1N1CCCCC1,.,1.1,i,.,.,99,.
Cc1ccc(Cn2ccc(NC(=O)c3noc4c3CCc3ccccc3-4)n2)cc1,91,1.1,i,-15,-2,98,-5.2
Cc1csc(NC(=O)c2ccc(S(=O)(=O)N3CCCC3)cc2)n1,.,0.89,i,.,.,96,.
CN1CCN(C(=O)/C(C#N)=C/c2ccc(OC(F)F)cc2)CC1,.,0.9,i,.,.,99,.
COc1ccc(Br)c(-c2nc(CS(=O)(=O)c3ccc(F)cc3)no2)c1,.,1,i,.,.,102,.
COc1cc(NC(C)=O)c2ncccc2c1NC(C)=O,.,0.97,i,.,.,101,.
CCOC(=O)c1nn(-c2ccc(C)c(C)c2)c(=O)c2c(N)scc12,163,0.94,i,5,-9,92,-1.2
Cc1nnc(SC(C)C(=O)NC2CCCc3ccccc32)n1-c1ccccc1 (centres undefined),.,1,i,.,-1,99,-1.8
CCS(=O)(=O)c1nc(S(=O)(=O)c2ccc(Cl)cc2)c(NCc2ccco2)s1,89,0.98,i,39,3,105,0.3
COc1ccc(CNC(=O)C(c2ccco2)N(C(=O)Cc2cccs2)c2cccnc2)cc1 (centres undefined),81,.,?,-28,1,100,.
COC(=O)c1sc(S(=O)(=O)N2CCN(c3ccc(OC)cc3)CC2)c(C(=O)OC)c1C,125,1.1,i,-6,5,96,-2.1
COc1cccc(-c2nnc(Nc3nc4c(F)cccc4s3)o2)c1,82,1,i,56,-4,102,-3.1
CCOc1cc(C2C(C(=O)c3ccco3)=C(O)C(=O)N2CCc2ccccc2)ccc1O (centres undefined),.,0.83,i,.,-2,100,-3.1
Cc1ccc(N=Nc2c(N)nn3c(C)cc(C)nc23)cc1,117*,1.1,i,82*,-3,101,0.5
CCOc1ccccc1N(C)C(=O)c1nn(-c2ccc(OC)cc2OC)c(=O)c2ccccc12,105,0.99,i,-71,-6,103,.
Cc1ccc(C)c(N(Cc2cc3ccc(C)cc3[nH]c2=O)C(=O)c2ccco2)c1,.,0.86,i,.,.,104,.
COC(=O)[C@@H]1C[C@]2(OC(=O)c3ccccc3)C=CC(=O)C[C@@H]2N1C(=O)OCc1ccccc1,125,0.99,i,19,-15,99,-1.0
CCCCn1c(N)c(-c2nc3ccccc3o2)c2c([N+](=O)[O-])nn(C)c(=O)c21,88,0.99,i,-13,0,120,0.1
COc1ccc(/C=N/Nc2ncnc3scc(-c4ccccc4)c23)cc1OC,62,0.85,i,-41,6,96,0.1
Cc1cc(NC(=O)c2cc(-c3ccco3)on2)n(-c2ccccc2)n1,102,0.74,i,-61,-9,104,-1.2
CC1(C)CC(=O)C2=C(C1)Nc1ncnn1C2c1ccccn1 (centres undefined),.,0.88,i,.,0,100,23*
COc1cc(C(=O)Nc2ccc(NC(=O)C3CC3)nc2)cc(OC)c1OC,.,0.94,i,.,-18,101,-0.7
COCCNc1c2c(c(C#N)c3nc4ccccc4n13)CCCC2,143,0.96,i,36,1,105,.
Clc1ccc(C2=Nn3c(Cn4nnc5ccccc54)nnc3SC2)cc1,.,1,i,.,.,101,.
CCSc1cc(N2CCCC2)nc(-c2ccc(F)cc2)n1,.,0.93,i,.,2,107,-0.8
CC(C)c1nc(C#N)c(N2CCOCC2)o1,69,0.9,i,-12,-11,104,-1.8
c1ccc2oc(SCc3cn4ccccc4n3)nc2c1,49,0.96,i,-112,-8,112,-1.1
O=C(NCC1CCS(=O)(=O)C1)NCC1CCS(=O)(=O)C1 (centres undefined),108,1.2,i,-27,-13,103,-1.0
O=C(Cn1ccc([N+](=O)[O-])n1)N1CCc2ccccc21,91,1,i,-11,0,98,.
O=C(N/C(=C\c1cccc([N+](=O)[O-])c1)C(=O)N1CCOCC1)c1ccc([N+](=O)[O-])cc1,77,0.93,i,5,0,105,.

# Bioassay records (PubChem)
